# Assay outcomes (PubChem)
# D2 PAM: Beta-Arrestin HTS for Positive Allosteric Modulators of the Human D2 Dopamine Receptor: Potentiators. DiscoveRx D2 beta-arrestin cells, luminescence, 90 min; 100% = 57 uM dopamine signal. potentiation, % (concentration not given with the values). actives 0.23% (n = 360,000). D(2) dopamine receptor (Homo sapiens), P14416; active = potentiation of 50% or more; inconclusive = 30% to 50%; inactive = 30% or less;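 note: compound concentration not given in the record; tested on top of an EC20 dose of dopamine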
# Target sequence (P14416 whole entry, looked up): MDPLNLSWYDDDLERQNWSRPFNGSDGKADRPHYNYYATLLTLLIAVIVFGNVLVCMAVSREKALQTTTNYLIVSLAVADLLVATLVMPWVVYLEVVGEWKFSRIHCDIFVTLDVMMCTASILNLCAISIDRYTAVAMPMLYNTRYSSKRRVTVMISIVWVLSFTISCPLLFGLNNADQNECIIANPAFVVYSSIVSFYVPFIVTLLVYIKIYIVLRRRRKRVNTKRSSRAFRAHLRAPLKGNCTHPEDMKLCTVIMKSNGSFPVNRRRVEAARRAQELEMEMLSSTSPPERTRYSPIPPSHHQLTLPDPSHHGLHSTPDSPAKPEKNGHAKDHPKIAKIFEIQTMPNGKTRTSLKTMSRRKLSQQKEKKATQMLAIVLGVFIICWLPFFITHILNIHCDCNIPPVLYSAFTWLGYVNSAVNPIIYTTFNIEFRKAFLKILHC
#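 D2 cells co-treated with compound plus 50 nM dopamine (EC20) for 90 min at 37 deg C to detect potentiation. Beta-arrestin recruitment was read as enzyme-fragment luminescence after 1 h at ambient temperature. Full response was set by 57 uM dopamine.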
# D2 agonist: Beta-Arrestin HTS for Positive Allosteric Modulators of the Human D2 Dopamine Receptor: Agonists; actives 0.084% (n = 360,000); AID 624465, 2012; DiscoveRx PathHunter D2 beta-arrestin, luminescence, 90 min; 100% = 57 uM dopamine signal; activation, % (test concentration not listed); D(2) dopamine receptor (Homo sapiens), P14416; in the data active = activation above about 40%; inconclusive = about 15% to 40%; inactive = below about 15%; note: compound concentration not given in the record; the text of the record calls up to 30% inactive
#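 Agonist mode: compounds alone added to overnight-plated D2 PathHunter cells for 90 min at 37 C, with 57 uM final dopamine (EC100) defining full response. Beta-arrestin recruitment detected by chemiluminescent reagent, read after 1 h at ambient temperature.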
# CtBP-E1A blk: qHTS Assay for Inhibitors of the CtBP/E1A Interaction. AlphaScreen GST-E1A/His-CtBP binding, 1536-well; hits give low values; control for the full effect not named in the record. AID 651724, 2012. CtBP / adenovirus E1A interaction (AlphaScreen). activity change, % (no concentration beside the values). actives 0.49% (n = 340,000); in the data active means activity change below about -65%; inconclusive means about -30% to -65%; inactive means above about -30%; note: % is set by controls: 0 for no effect and ±100 for the full control effect; compound concentration not given in the record
#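 AlphaScreen with 125 nM GST-E1A and 125 nM His-CtBP (5X stocks) in Tris pH 8.0, 300 mM NaCl, BSA, Tween 20, TCEP. Compounds preincubated 2 h at 37 deg C, then glutathione donor/nickel acceptor beads added for 1 h at 37 deg C in dark.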
# TRPML1 ag: qHTS for Agonists of the Human Mucolipin Transient Receptor Potential 1 (TRPML1); actives 0.12% (n = 410,000); Mucolipin-1 (Homo sapiens), Q9GZU1; AID 624414, 2012; TRPML1-expressing cells, Ca2+ dye fluorescence, FDSS; host cell line not named in the record; reference of the full effect not given here; activation, % (no concentration beside the values); in the data active = activation above about 50%; inconclusive = about 30% to 50%; inactive = below about 30%; note: 0% is about no effect; the text of the record puts the active cut at 80%
# Target sequence (Q9GZU1 whole entry, looked up): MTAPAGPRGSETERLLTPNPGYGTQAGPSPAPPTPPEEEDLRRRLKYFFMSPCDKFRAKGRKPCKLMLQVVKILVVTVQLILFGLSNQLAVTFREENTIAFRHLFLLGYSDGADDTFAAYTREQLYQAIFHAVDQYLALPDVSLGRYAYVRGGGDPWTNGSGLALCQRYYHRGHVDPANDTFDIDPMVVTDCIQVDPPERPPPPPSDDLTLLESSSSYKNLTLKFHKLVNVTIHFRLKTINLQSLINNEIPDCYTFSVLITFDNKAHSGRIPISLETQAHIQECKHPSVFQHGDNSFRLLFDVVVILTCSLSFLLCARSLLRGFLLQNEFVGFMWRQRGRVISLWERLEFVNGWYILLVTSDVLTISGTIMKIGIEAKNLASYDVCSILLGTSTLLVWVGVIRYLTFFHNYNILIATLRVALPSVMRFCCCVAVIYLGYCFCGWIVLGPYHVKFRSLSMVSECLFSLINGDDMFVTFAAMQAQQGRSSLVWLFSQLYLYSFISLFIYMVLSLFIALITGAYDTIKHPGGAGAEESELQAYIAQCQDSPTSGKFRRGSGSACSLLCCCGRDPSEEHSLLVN
#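 Calcium fluorescence on an FDSS kinetic reader gave the read-out. Tet-induced TRPML1-DL cells were plated overnight, dye-loaded (Ca8 with quencher, 45-90 min, room temperature, dark), then read 110 s after compound addition, and again 110 s after 4uM final 54-4 (EC80).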
# Six1-Eya2 blk: qHTS Assay for Inhibitors of the Six1/Eya2 Interaction | Homeobox protein SIX1 (Homo sapiens) + Protein phosphatase EYA2 (Homo sapiens), … | AlphaScreen GST-Six1/His-Eya2 binding, biochemical; hits give low values; control for the full effect not named in the record | activity change, % (no concentration beside the values) | actives 0.56% (n = 360,000) | AID 651725, 2012; in the data active = activity change below about -65%; inconclusive = about -30% to -65%; inactive = above about -30%; note: % is set by controls: 0 for no effect and ±100 for the full control effect; compound concentration not given in the record
#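 GST-Six1 + His-Eya2 (5X stock: 250/500 nM); Tris pH 8.0, 300 mM NaCl, 0.05% BSA, 0.02% Tween 20; GSH donor/Ni acceptor beads; 1 h 37 °C dark; AlphaScreen readout.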
# PINK1 modulator: A Quantitative High throughput Screen to Identify Chemical Modulators of PINK1 Expression. PINK1 immunofluorescence, high-content cytometry, 24 h. Potency, µM (doses to about 76.6 µM), for the others: at the top dose activation (PINK1 increase), actives largely listed as activators. actives 0.2% (n = 410,000); active = well fitted activation curve with a large enough effect; inconclusive = small, poorly fitted or top-dose-only effect; inactive = flat fitted curve, though single readings scatter; cell line not stated here;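 note: potency is the fitted concentration of half-maximal effect; % of control where 0% means no effect; nearly all actives have a fitted effect of over 65% in size; a mitochondrial uncoupler was the plate control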
#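 PINK1 protein, normally rapidly degraded, was detected by immunofluorescence after 24 hour compound treatment of a stable cell line. Titration data (5 concentrations) came from laser-scanning cytometry, with CCCP-treated wells as controls.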
# Active calls of the source: *; u = inconclusive; x = not tested or not shown; & = joins results of further samples; [ ] = remark or other dose.
item	Compound	D2 PAM	D2 agonist	CtBP-E1A blk	TRPML1 ag	Six1-Eya2 blk	PINK1 modulator
1	CC(C)[C@@H]1NC(=O)c2cc([N+](=O)[O-])cc(I)c2OCC[C@@H](C(N)=O)NC(=O)[C@H](CCC(=O)O)NC1=O	-6	-3.5	x	-0.3	-1	0.7%
2	COc1ccc(Cc2nnc(NC(=O)c3ccccc3)s2)cc1OC	-2	3.9	-1	-0.6	4	0.9%
3	O=C(Nc1ccccc1C(=O)N1CCCCCC1)c1ccc(F)cc1	-4	-3.4	-1	0.0	3	-0.4%
4	COc1ccc(CCNC(=O)c2cc(C(=O)c3cc(C)ccc3O)cn(CCc3ccc(OC)cc3)c2=O)cc1	8	11	-22	-1.3	-8	0.9%
5	COc1ccc(-c2nc(CS(=O)CC(=O)NC3CCCc4ccccc43)c(C)o2)cc1OC (stereo not given)	1	1.7	2	-0.4	-4	0.3%
6	COc1ccccc1-c1cc(C(=O)N2CCCC2)no1	2	7.3	8	0.3	7	2.1%
7	COc1ccc(S(=O)(=O)NC(CC(=O)NCc2ccccc2OC)c2ccco2)cc1 (stereo not given)	-29	2.5	0	-0.1	-12	-0.5%
8	N/C(=N\NS(=O)(=O)c1cc(C(F)(F)F)cc(C(F)(F)F)c1)c1ccccn1	14	-19	-15	1.5	-17	0.2%
9	Cc1ccc(C2CC(c3ccc(Cl)cc3)=NNC2=O)cc1 (stereo not given)	-1	4.9	-1	1.8	1	0.5%
10	COc1cccc(NC(=O)CSc2nnc(-c3cccnc3)o2)c1	-8	-6.2	-3	0.9	9	-1.5%
11	COc1ccc(/C=N\NC(=O)c2ccc([N+](=O)[O-])cc2)cc1COc1c(F)c(F)cc(F)c1F	-48	2.0	10	0.5	-13	5.1%
12	CCC(C(=O)N1CCN(Cc2ccc3c(c2)OCO3)CC1)n1c(=O)[nH]c2ccccc2c1=O (stereo not given)	-9	-8.7	24	-0.7	9	-1.0%
13	O=C(O)C1CCCCC1C(=O)Nc1ccc(-c2ccccc2)cc1 (stereo not given)	-7	-4.2	10	-0.4	-6	1.9%
14	Cc1ccc(C)c(N=Nc2ccc(O)c3ncccc23)c1	-3	-3.0	u	0.8	u	3.6%
15	COc1ccc(C=C(C(C)=O)C(=O)c2ccccc2)cc1	-7	-3.9	2	-1.2	-1	0.7%
16	Cc1[nH]c2ccc3ccccc3c2c(=O)c1C/C=C/Cl	-8	-4.5	-4	0.6	-14	3.0%
17	CCC(=O)Nc1cc(-c2nn(CC(=O)N3CCCCC3)c(=O)c3ccccc23)ccc1N1CCOCC1	1	-2.6	0	0.6	0	2.5%[38.3 µM]
18	O=C(NCc1ccncc1)[C@@H]1CCCN1C(=O)[C@@H]1CCCN1C(=O)c1ccccc1	x	x	1	-0.5	-4	0.2%
19	CC(=O)N1CCN(CCN2C(C)=CC(=C(C#N)C#N)C=C2C)CC1	-3	2.2	-11	-0.4	39	0.0%
20	O=C(N/N=C/c1ccc(F)cc1)c1cc(-c2ccccn2)nc2ccccc12	-3	-0.9	6	-0.1	-2	13%
21	CCOC(=O)Cc1csc(NS(=O)(=O)c2ccc(Cl)cc2)n1	-2	0.7	-5	-0.5	-1	2.3%
22	COC(=O)c1ccc(OCC(=O)NC(C)(C)C)cc1	-3	-2.1	5	-0.4	3	1.4%
23	Cc1ccc(NC(=O)Cn2cccc2C2=NC(c3ccccc3)CO2)cc1C (stereo not given)	-18	-6.4	-1	4.2	-7	8.5%
24	O=Nc1c(O)[nH]c2c(F)cccc12	5	0.9	19	0.4	5	3.2%
25	CCc1ccc(N(C(=O)c2ccco2)C(C(=O)NC2CCCC2)c2cccnc2)cc1 (stereo not given)	2	-3.9	4	-0.1	7	2.5%
26	O=C(COC(=O)c1n[nH]c2ccccc12)Nc1ccccc1	-12	-1.1	1	0.7	-1	1.9%
27	N#C/C(=N\Nc1ccccc1)C(=N)N1CCCCC1	-33	-2.6	-13	0.6	-3	-1.0%
28	Cc1nn(-c2ccccc2)c(C)c1C(=O)OCC(O)=C(C#N)c1nc2ccccc2[nH]1	0	2.3	u	-0.4	-18	-0.6%
29	O=C(c1ccccc1)c1c2c(cc3sc4ccccc4[n+]13)-c1cccc3cccc-2c13	8	4.7	0	54*	-6	u
30	Cn1c(=O)c2c(nc(CN3CCN(C(=O)c4ccco4)CC3)n2CCCO)n(C)c1=O	0	-8.8	x	1.0	-13	-0.1%

# Ordered by molecular weight (smallest number first): nine of the compounds above
item	Compound	D2 PAM	D2 agonist	CtBP-E1A blk	TRPML1 ag	Six1-Eya2 blk	PINK1 modulator
9	Cc1ccc(C2CC(c3ccc(Cl)cc3)=NNC2=O)cc1 (stereo not given)	-1	4.9	-1	1.8	1	0.5%
21	CCOC(=O)Cc1csc(NS(=O)(=O)c2ccc(Cl)cc2)n1	-2	0.7	-5	-0.5	-1	2.3%
20	O=C(N/N=C/c1ccc(F)cc1)c1cc(-c2ccccn2)nc2ccccc12	-3	-0.9	6	-0.1	-2	13%
28	Cc1nn(-c2ccccc2)c(C)c1C(=O)OCC(O)=C(C#N)c1nc2ccccc2[nH]1	0	2.3	u	-0.4	-18	-0.6%
29	O=C(c1ccccc1)c1c2c(cc3sc4ccccc4[n+]13)-c1cccc3cccc-2c13	8	4.7	0	54*	-6	u
25	CCc1ccc(N(C(=O)c2ccco2)C(C(=O)NC2CCCC2)c2cccnc2)cc1 (stereo not given)	2	-3.9	4	-0.1	7	2.5%
5	COc1ccc(-c2nc(CS(=O)CC(=O)NC3CCCc4ccccc43)c(C)o2)cc1OC (stereo not given)	1	1.7	2	-0.4	-4	0.3%
4	COc1ccc(CCNC(=O)c2cc(C(=O)c3cc(C)ccc3O)cn(CCc3ccc(OC)cc3)c2=O)cc1	8	11	-22	-1.3	-8	0.9%
1	CC(C)[C@@H]1NC(=O)c2cc([N+](=O)[O-])cc(I)c2OCC[C@@H](C(N)=O)NC(=O)[C@H](CCC(=O)O)NC1=O	-6	-3.5	x	-0.3	-1	0.7%

# Following part:
item	Compound	D2 PAM	D2 agonist	CtBP-E1A blk	TRPML1 ag	Six1-Eya2 blk	PINK1 modulator
31	CCN(C(=O)C(C)OC(=O)C1C(C(=O)OC)=C(C)NC(C)=C1C(=O)OC)c1ccccc1 (stereo not given)	-7	-3.9	-4	-0.1	3	-0.8%
32	N/C(Cn1cncn1)=N\NC(=O)C(=O)Nc1ccc(Cl)cc1Cl	-5	-2.9	-23	1.2	-22	-0.3%
33	CC(=O)O[C@@H]1C[C@H]2C(C)=C[C@H]3OC(=O)[C@@H](C)[C@H]3C[C@H]2[C@]1(C)O	-6	-3.6	2	0.0	9	3.1%
34	Cc1cc2c(cc1[N+](=O)[O-])NC(CNC(C)C)CC2 (stereo not given)	-26	-2.5	-15	-0.6	-18	-2.0%
35	COc1ccc(NC(=O)Nc2ccc(OC)c(OC)c2)c([N+](=O)[O-])c1	26	-2.3	-4	-0.3	-2	14%
36	CC(Sc1nnc(-c2cccnc2)o1)C(=O)NC1CCCCC1 (stereo not given)	0	-2.8	x	0.0	1	3.0%
37	CCOc1nc(NC2CCCC2)nc(N2CCC(C)CC2)n1	-3	1.2	6	-0.1	8	20%
38	Cc1cc(=O)[nH]c(NN=Cc2cc(Br)ccc2O)n1	-17	4.9	-94*	0.0	-89*	-6.2%
39	Cc1ccc(OCC(=O)Nc2ccc(C)c(F)c2)c([N+](=O)[O-])n1	-8	-2.3	-1	0.7	1	-1.6%
40	O=C(O)C(=O)/C(=C\c1ccc(Cl)cc1)c1ccc2ccccc2n1	-4	1.4	-1	14	0	0.9%
41	Cc1nc(-c2cccc(NC(=O)c3cc4cc(Br)ccc4oc3=O)c2)cs1	0	0.4	-1	-0.7	4	9.9%
42	COc1ccc(CCNC(=O)C2CCN(Cc3nc(-c4ccccc4C)oc3C)CC2)cc1OC	-16	-3.5&-0.6	-9	-0.7	-3	-2.0%[38.3 µM]
43	COC(=O)c1cn[nH]c1N	23	-3.4	2	0.0	2	2.7%
44	CCN(CC)S(=O)(=O)c1ccc(C)c(NC(=S)Nc2cccc(S(=O)(=O)N3CCCCCC3)c2)c1	-25	-4.0	3	-0.2	-12	25µM*
45	Cc1cnc(C(=O)Nc2ccc(N3CCN(C(=O)OC(C)(C)C)CC3)cc2)cn1	-3	-1.8	3	0.0	1	12%
46	COc1ccc(/C=C2\SC(=S)NC2=O)cc1OS(=O)(=O)c1ccc(NC(C)=O)cc1	15	2.2	2	1.9	15	8.4%
47	CCOC(=O)CN1C(=O)N[C@@H](c2ccco2)C(C(=O)OC)=C1C	-5	0.0	-2	0.6	5	-0.7%
48	Cc1ccc(C(C)C)cc1OCCN1CCCC1	-12	-14	-7	-0.8	3	1.2%
49	CN(C)S(=O)(=O)c1cccc(NC(=O)COC(=O)CCSc2ccc(Cl)cc2)c1	-12	-4.3	10	-0.4	0	3.6%
50	COc1ccc(C2=Nn3c(C)nnc3SC2)cc1	-6	-3.1	x	2.7	-3	4.0%
51	COc1ccc(-n2cc(CNCCN3CCOC3=O)c(-c3ccccc3Cl)n2)cc1	-19	-1.8	3	0.0	1	-0.9%
52	COc1ccc(Cl)cc1N(CC(=O)N/N=C/c1ccc(OCC(N)=O)cc1)S(C)(=O)=O	-3	2.4	-14	1.6	-17	-2.3%
53	CCOc1ccc(CN2CCNC(=O)C2CC(=O)N(C)Cc2nonc2C)cc1 (stereo not given)	-5	-4.8	0	1.1	22	-1.5%
54	S=C1CCC(c2ccc(Cl)cc2)=NN1c1ccccc1	-2	-6.1	u	1.9	-27	-0.1%
55	Cc1ccc(NC(=O)C(NS(=O)(=O)c2cccc3nsnc23)C(C)C)nc1 (stereo not given)	-5	-0.7	0	-0.1	-7	5.6%
56	C=CCN1C(=O)C(O)(CC(=O)c2ccc(Cl)cc2)c2ccccc21 (stereo not given)	-26	-7.4	0	1.0	8	u
57	O=C(c1nc[nH]c1C(=O)N1CCc2ccccc2C1)N1CCc2ccccc2C1	6	6.9	8	-0.3	11	0.3%
58	COc1cccc(C(=O)COC(=O)CCCC(=O)NC2CCCCC2)c1	-18	-5.5	-4	1.2	-1	0.1%
59	COc1ccc(NC(=S)NCCCN2CCOCC2)cc1	-10	-4.3	0	0.1	2	-1.4%
60	COC(=O)Cn1cc(/C=N/NC(=O)c2ccc(C#N)cc2F)c2ccccc21	-2	-2.0	-6	-0.1	-7	11µM*
61	COc1cc(Cl)cc(/C=N/NC(N)=O)c1O	-8	-1.0	6	-0.3	-3	-1.5%
